Compound activity: PubChem BioAssay, Center for Chemical Genomics, University of Michigan
TAR Tat displ = HIV-1 TAR-Tat binding disruption; HIV-1 TAR RNA, Tat peptide displacement FRET; active compounds read high; z-score (no concentration beside the values); actives 0.6% (n = 100,000);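 note: score is relative to mean and SD of negative controls; some compounds called inactive have numbers as strong as hits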
CDC25B CDK2 inh = human CDC25B-CDK2/CyclinA binding inhibition | P30305+P24941 | HTRF CDC25B-CDK2/CyclinA binding, anti-His/anti-Flag; active compounds read high | z-score (no concentration beside the values) | actives 0.72% (n = 94,000);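 note: score is relative to mean and SD of negative controls; strong numbers were not always called active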
* marks the source's active call; other numbers are inactive results; . = not tested or not shown.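 Rule for the calls: active = z-score from 3 up in half or more of its runs; inactive = the rest.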 Not a hit list; overall some 0.94% were active at least once.

SMILES	TAR Tat displ	CDC25B CDK2 inh
CCN1C(=O)C2(c3ccccc31)C(C(=O)Nc1ccc(Br)cc1)CC1CSCN12 (configuration not stated)	1.2	.
COc1ccc(-c2c3c(=O)n(C)c(=O)n(C)c3cn2-c2ccccc2O)cc1	.	-0.37
O=C(Nc1cccc(Cl)c1)N1CCN2C(=O)c3ccccc3C12c1ccccc1 (configuration not stated)	.	-0.25
CC1(C)CC(=O)C2=C(C1)Nc1[nH]c(=S)[nH]c(=O)c1C2c1ccc(O)cc1 (configuration not stated)	.	-9.8
O=C1CCCc2cc(S(=O)(=O)NCC3CCC(C(=O)N4CCCC4)CC3)ccc2N1 (configuration not stated)	1.3	.
CN1CCC(N(C)C(=O)c2c(-c3ccccc3)c(-c3ccccc3)nn(C)c2=O)CC1	2.5	-1.5
O=C(Nc1cccc2c1CCCC2)N1CCC(CN2CCCCC2)CC1	1.3	.
O=C(Nc1ccc2c(c1)OCO2)C1CCCN(S(=O)(=O)c2ccc3[nH]c(=O)oc3c2)C1 (configuration not stated)	0.05	.
Cc1nnc2sc(-c3ccccn3)nn12	0.11	-1.6
CCOC(=O)CC(=O)CSC1=NS(=O)(=O)c2ccccc2N1	-0.99	.
O=C1CC(c2ccccc2)CC2=C1C(c1ccsc1)Nc1ccccc1N2 (configuration not stated)	0.86	-2.1
O=C(CSc1ncnc2c1cnn2-c1ccccc1Cl)N1CCCc2ccccc21	-1.6	-2.1
CC1=C(C(=O)OCc2ccc(C)cc2)C(c2ccc(Br)cc2)CC(=O)N1 (configuration not stated)	0.58	-1.3
O=c1c(N2CCN(Cc3ccccc3)CC2)csc2ccc(Br)cc12	-0.72	.
O=c1c(N2CCOCC2)csc2ccc(Cl)cc12	0.25	.
CCCc1nn2cc(-c3ccc(OCC)cc3)nc2s1	1.4	-1.7
Cn1cc([N+](=O)[O-])c(C(=O)n2cc(Br)cn2)n1	.	-0.9
O=C(NC1CCCCC1)C1CCCN(c2nc3cccnc3s2)C1 (configuration not stated)	-0.16	.
Cn1c(=O)c2c(-c3cccc(Br)c3)c(NCc3ccccc3)oc2n(C)c1=O	1.1	.
CCNC(=O)c1c(NC(=O)c2nc(S(C)(=O)=O)ncc2Cl)sc2c1CCCC2	-5.4	-1
CCOC(=O)c1nnn(-c2nonc2N)c1-c1ccc(Br)cc1	1.4	0.24
CC(C)COc1ccc2c(c1)c1c3c([n+](C)ccn32)CCC1	-0.77	-2.5
Fc1ccc(-c2noc3ncnc(N4CCN(c5cccc(Cl)c5)CC4)c23)cc1	-0.25	.
N/C(=N\O)c1cnc(-c2ccncc2)nc1N	.	-0.94
O=C(COc1ccc2oc3c(c2c1)CCCC3)Nc1ccccc1	.	-2.3
COc1ccc(-n2nnc(-c3nc(-c4ccccc4Cl)no3)c2N)cc1Cl	0.5	.
Clc1ccccc1OCc1nn2c(Cn3cnc4ccccc43)nnc2s1	1.6	-1.3
O=C(Nc1ccc(F)cc1Cl)C1COc2ccccc2C1 (configuration not stated)	0.44	.
COc1ccc(S(=O)(=O)N2CCc3cc4cccc(C)c4nc32)cc1C	0.71	2.5
O=C(O)CCCCCNCc1cccc2ccccc12	1.1	.

Six compounds already listed, sorted by count of non-hydrogen atoms, largest number first:
SMILES	TAR Tat displ	CDC25B CDK2 inh
Fc1ccc(-c2noc3ncnc(N4CCN(c5cccc(Cl)c5)CC4)c23)cc1	-0.25	.
Clc1ccccc1OCc1nn2c(Cn3cnc4ccccc43)nnc2s1	1.6	-1.3
COc1ccc(S(=O)(=O)N2CCc3cc4cccc(C)c4nc32)cc1C	0.71	2.5
CCOC(=O)c1nnn(-c2nonc2N)c1-c1ccc(Br)cc1	1.4	0.24
O=C(Nc1ccc(F)cc1Cl)C1COc2ccccc2C1 (configuration not stated)	0.44	.
N/C(=N\O)c1cnc(-c2ccncc2)nc1N	.	-0.94

Continued.
SMILES	TAR Tat displ	CDC25B CDK2 inh
COc1ccc(N2C(=O)CC3c4ccccc4CCN3C2=O)cc1OC (configuration not stated)	2.2	.
O=C(NCCCN1CCCCC1)C1CCN(c2nc3cccnc3s2)CC1	0.68	.
OC(CC#CCN1CCCCC1)(c1ccccc1)C1CCCC1 (configuration not stated)	1.7	-0.44
Cc1ccc(C)c(S(=O)(=O)c2nnn3c2nc(NC(C)C)c2sccc23)c1	-2	.
CC(C)(C)C(=O)O/N=C(\N)COc1ccc(C(C)(C)C)cc1	.	0.46
O=C1OC(N2CCN(C(c3ccccc3)c3ccccc3)CC2)c2ccccc21 (configuration not stated)	2.4	-0.35
O=C(Nc1ccc(F)cc1)C1CC(=O)N(c2ccccc2)C1 (configuration not stated)	-1	0.44
O=C(Nc1nc2ccc(S(=O)(=O)N3CCCC3)cc2s1)c1ccccn1	-0.43	.
CCOC(=O)N1CCN(c2nc(-c3ccccc3)c3cc(C)ccc3n2)CC1	0.68	-1.2
O=C(Nc1ccc2c(c1)OCCO2)C1CCN(S(=O)(=O)c2ccc3[nH]c(=O)oc3c2)CC1	1.2	.
O=C1CSC(c2cccc(NS(=O)(=O)c3ccc4c(c3)CCCC4)c2)N1 (configuration not stated)	1.6	.
CCN1/C(=C/C2=CC(=O)CC(C)(C)C2)Sc2ccccc21	-15	-2.1
N#CC(C#N)=Cc1ccc(-c2ccccc2C(F)(F)F)o1	.	-0.47
O=C(Nc1ccc(S(=O)(=O)Nc2ncccn2)cc1)c1cnc2n(c1=O)CCS2	.	0.08
CCN1CCC(N(Cc2cccs2)S(=O)(=O)c2ccc3c(c2)C(C)(C)C(=O)N3C)CC1	3.1	.
Nc1nc(-c2ccc(Cl)cc2)nn1C(=O)c1ccccc1Cl	0.6	.
Cc1ccc2nc(C)c(Cc3nnc(SCC(=O)Nc4ccc(F)c(Cl)c4)n3C)c(=O)n2c1	-1.2	-1
O=C(CC1(O)C(=O)Nc2ccc(Br)cc21)c1cccnc1 (configuration not stated)	0.87	-1.4
CCOC(=O)c1c(C)oc2ncnc(NC(C)CC)c12 (configuration not stated)	-1.4	.
CC(C)CNC(=O)C(=O)NCC(c1ccco1)S(=O)(=O)c1ccc(F)cc1 (configuration not stated)	2.2	.
Cn1c(Cn2c(=O)sc3ccccc32)nnc1SCC(=O)Nc1ccc2c(c1)OCO2	.	1.1
CCCNC(=O)CCc1nnc2ccc(NCc3ccc4c(c3)OCO4)nn12	1.3	.
C=CCOc1ccc(/C(O)=C2\C(=O)C(=O)N(Cc3cccnc3)C2c2ccc(N(C)C)cc2)c(C)c1 (configuration not stated)	-1.1	-1.9
CC(C)C12CN3CC(C(C)C)(CN(C1)C3c1ccc(Br)cc1)C2=O (configuration not stated)	-0.15	-1.1
O=C(O)C1CC(=O)N(Cc2ccc(C(F)(F)F)cc2)C1 (configuration not stated)	.	0.01
CSCCC(NS(=O)(=O)c1ccc2c(c1)oc(=O)n2C)C(=O)Nc1nc(C)cs1 (configuration not stated)	.	-1.8
N#Cc1ccc(C(=O)CSc2n[nH]c(=O)n2-c2cccnc2)cc1	.	-0.49
CC(C)NC(=O)c1ccc(N2CC(C)Sc3ccccc32)s1 (configuration not stated)	0.24	.
O=C1c2cccnc2C(=O)N1Cc1ccc(F)cc1S(=O)(=O)NC1CCCCC1	0.97	.
CCOC1c2ccccc2NC(c2ccccc2)C1(C)C (configuration not stated)	1.9	-2
CCN1CCN(C(=O)c2sc3ncn(CC(=O)N4CC(C)CC(C)C4)c(=O)c3c2C)CC1 (configuration not stated)	.	-2.9
C=CCN1CC(O)=C(c2nc3ccc(C)cc3[nH]2)C1=N	2.6	-3.7
CCn1nc(C)c(CCNS(=O)(=O)c2ccc(C)cc2C)c1C	0.22	.
Cc1ccc(N(CC(O)CN(C)C)S(=O)(=O)c2ccc(C)cc2)cc1 (configuration not stated)	-1.1	-0.15
O=C(O)c1nnn(Cc2ccccc2Cl)c1C(=O)O	0.67	0.04
O=C(CSc1ncc(CO)n1Cc1ccccc1)N1CCc2ccccc21	1.1	.
O=C(Nc1ccc(F)c(F)c1)c1cc2cc3ccc(Cl)cc3nc2o1	3.9	.
O=S(=O)(NCc1ccncc1)c1cccs1	3.8	0.04
CCCC(=O)N1CC2(C)CN(C(=O)CCC)CC(CCC)(C1)C2=O	.	-1.6
COc1ccc(OC)c(NS(=O)(=O)c2cc3c4c(c2)CC(=O)N4CCC3)c1	1.8	.
CC(C)CNC(=O)N1CCN(S(=O)(=O)c2ccc3c(ccn3C)c2)CC1	0.84	.
O=C(Cn1ccc(C(F)(F)F)n1)c1ccc(Cl)cc1	.	-2.7
Cc1cn2c(=O)cc(CSc3ccccc3NC(=O)C(C)Oc3ccccc3)nc2s1 (configuration not stated)	-0.67	.
CCOC(=O)c1oc2ccc(S(=O)(=O)Nc3ccc4c(c3)oc(=O)n4C)cc2c1C	0.99	.
CC1CCc2nn(CC(=O)Nc3cc(F)ccc3F)c(=O)cc2C1 (configuration not stated)	2.5	.
O=C(NCCN1CCCC1)c1ccc2c(c1)nc1n2CCCCC1	0.55	.
CCOC(=O)c1cc(=O)c2ccccc2[nH]1	-0.08	-1.5
COc1cccc2c(=O)cc(CSc3nnc(COc4cc(C)c(Cl)c(C)c4)n3C)[nH]c12	-0.22	.
COCCCNC(=O)c1nn(C)c2c1CS(=O)(=O)c1ccccc1-2	1.8	-0.45
Cc1ccc2cc(C)c(NCCO)nc2c1	0.54	-1.2

Next structures:
SMILES	TAR Tat displ	CDC25B CDK2 inh
Cc1cc2n(n1)CCCN2C(=O)CCC(=O)NCCCN1CCCCC1C (configuration not stated)	3.7	.
O=C(CSc1nnc(Cn2c(=O)sc3ccccc32)n1-c1ccccc1)Nc1cccc(F)c1	.	-2.4
Fc1cccc(CN2CCc3nc(N4CCN(c5ccccn5)CC4)ncc3C2)c1	-0.33	.
Cc1ccc(C)c(Cc2c(C)nc3c(C(=O)NCC4CCCO4)cnn3c2C)c1 (configuration not stated)	.	-2.4
Cc1c(C(=O)O)cnn1-c1ccccc1	0.65	-0.63
O=C1c2ccccc2C(Nc2ccc(S(=O)(=O)N3CCOCC3)cc2)N1c1cccnc1 (configuration not stated)	0.92	0.34
COc1ccc(Nc2ncnc3sc(C(=O)O)c(C)c23)cc1OC	35*	.
CN(Cc1ccco1)C(=O)c1cccc(C(=O)N(C)Cc2ccco2)n1	2.1	.
COCc1nc2c([nH]1)c(=O)n(C)c(=O)n2CC(C)C	.	-0.89
COc1ccccc1NC(=O)NCc1nc(-c2ccc(C(F)(F)F)cc2)no1	.	0.08

6 of the compounds above, bar-delimited:
structure | TAR Tat displ | CDC25B CDK2 inh
Fc1cccc(CN2CCc3nc(N4CCN(c5ccccn5)CC4)ncc3C2)c1 | -0.33 | .
Cc1ccc(C)c(Cc2c(C)nc3c(C(=O)NCC4CCCO4)cnn3c2C)c1 (configuration not stated) | . | -2.4
Cc1c(C(=O)O)cnn1-c1ccccc1 | 0.65 | -0.63
O=C1c2ccccc2C(Nc2ccc(S(=O)(=O)N3CCOCC3)cc2)N1c1cccnc1 (configuration not stated) | 0.92 | 0.34
COc1ccc(Nc2ncnc3sc(C(=O)O)c(C)c23)cc1OC | 35* | .
CN(Cc1ccco1)C(=O)c1cccc(C(=O)N(C)Cc2ccco2)n1 | 2.1 | .

Already shown: entries from further up.
SMILES	TAR Tat displ	CDC25B CDK2 inh
Cc1cc2n(n1)CCCN2C(=O)CCC(=O)NCCCN1CCCCC1C (configuration not stated)	3.7	.
O=C(CSc1nnc(Cn2c(=O)sc3ccccc32)n1-c1ccccc1)Nc1cccc(F)c1	.	-2.4

The list continues.
SMILES	TAR Tat displ	CDC25B CDK2 inh
Cc1ccc(-c2ccc(=O)[nH]n2)cc1S(=O)(=O)NC1CCCC1	0.75	-1.5
Cn1cc(NC(=O)N2CCN(c3cccc(Cl)c3)CC2)c2ccccc2c1=O	0.51	.
O=C(c1ccc(N2CCc3ccccc32)s1)N1CCCC1	-9.2	.
O=C1CCCc2oc3c(Br)cc(NS(=O)(=O)c4ccc(Cl)cc4)cc3c21	.	-4.6
O=c1c2oc3nc4c(cc3c2ncn1Cc1ccc(F)cc1)CCCC4	-0.02	.
O=c1c2ccc(Cl)cc2[nH]c(=S)n1CCC1=CCCCC1	.	-0.71
N#CCC(=O)Nc1ccccc1Oc1cc(Cl)ccc1Cl	.	-1.1
Nc1n[nH]c(S(=O)(=O)Cc2ccccc2)n1	1	.
Oc1ccc(NC(c2ccccc2)c2nnc(-c3ccccc3Cl)o2)cc1 (configuration not stated)	-0.23	.
O=C(Nc1ccc(Br)cc1)c1cnn(-c2ccc(Cl)cc2)c1C1CCNCC1	1.8	.
CCN(CC)S(=O)(=O)c1ccc2c(c1)nnn2CCCC(=O)O	1.5	.
Cc1nn2c(CN(C(=O)c3ccco3)c3ccccc3)nnc2c2ccccc12	2.3	-1.6
O=C(CSc1ccc(-c2cccs2)nn1)NC1CCCCC1	1.3	.
CCCOc1ccc2[nH]cc(C(=O)O)c(=O)c2c1	0.35	0.91
O=C(CSc1nnc2ccc3ccccc3n12)c1ccc(F)cc1	-0.71	-0.45
CCOC(=O)c1ccc2oc(=O)n(Cc3ccccc3)c2c1	0.89	.
CN1CCN(C(=O)Nc2cn(C)c(=O)c3ccccc23)CC1	0.73	2.3
COc1ccccc1N1CCN(C(=O)C(C)N2CCCc3cc(C)ccc32)CC1 (configuration not stated)	.	-3.5
COc1ccc(-c2cc(C)no2)cc1S(=O)(=O)Nc1ccc(-c2ccno2)cc1	-0.54	.
Cc1ccc(Cl)cc1-n1ncc2c(NCCCn3ccnc3)ncnc21	1.4	.
Cc1ccc(C)c(N2CC(O)=C(c3nc4ccccc4n3C)C2=N)c1	0.55	-0.5
Cc1ccc(-c2nc3ccccc3c3nnc(SCC(N)=O)n23)cc1	-0.11	.
COc1ccc(-c2nc(N3CCC(N4CCCCC4)CC3)c3ccccc3n2)cc1	0.14	.
COc1ccc(C2NC(C(=O)O)C3C(=O)N(c4ccc(F)cc4)C(=O)C23)c(OC)c1OC (configuration not stated)	.	-0.45
Nc1cc(N)cc(C(F)(F)C(F)(F)C(F)(F)F)c1	.	-1.5
COC(=O)c1c(OC)ccc([N+](=O)[O-])c1OC	.	-0.17
CN(C)c1ccc(NC(=O)CSc2nc3ncccc3[nH]2)cc1	0.14	.
